E coli growth: inhibitors of Escherichia coli growth; OD600, 23 h; active compounds read low; OD600 absorbance (test concentration not listed); actives 0.21% (n = 330,000); AID 1053175;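 active = OD600 absorbance below the run mean of sample wells minus 3.6 SD, in any replicate, cut at about 0.56 in these data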;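 note: stock transfer was 300 nL into about 60 µL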
Bfl-1 A1 inh: inhibitors of the anti-apoptotic protein A1, read as caspase activation; caspase activation, % (no concentration beside the values); AID 2462; MEF A1-2A-BIM cells, Caspase-Glo 3/7 luminescence, 3 h; percent of clofoctol response, vehicle zero; actives 0.066% (n = 330,000);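 active = over half of replicate activation scores above 10%, or exactly half above 10 with the replicate mean above 10; inconclusive = replicate mean below 10 yet half the replicates above 10; inactive = over half of replicates below 10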;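 note: wells of about 30 µL received 50 nL stock; many hits fall short of the cut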
FGF22 binding: shifts melting point of recombinant human FGF22; recombinant FGF22 thermal shift, SYPRO orange fluorescence; percent of sucrose octasulfate shift, DMSO zero; calls only at 9.99 µM; actives 1.5% (n = 340,000); AID 651658;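 active = melting point raised past a set limit in the mean and every replicate; inconclusive = no clear call; three in four hits are not shown here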
Target sequence (Q9HCT0 whole entry, looked up): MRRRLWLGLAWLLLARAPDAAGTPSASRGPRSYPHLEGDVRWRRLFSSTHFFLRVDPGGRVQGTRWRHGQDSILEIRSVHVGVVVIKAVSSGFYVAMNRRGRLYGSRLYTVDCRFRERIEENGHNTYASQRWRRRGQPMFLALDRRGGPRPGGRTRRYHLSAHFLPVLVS
Beta cell apopt: blocks beta cell apoptosis; protection from apoptosis, % (test concentration not listed); actives 0.8% (n = 300,000); INS-1E cytokine-induced death, ATP luminescence, 48 h; percent of positive-control rescue, neutral wells zero; AID 435005;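 active = all replicates at 75% or more, or half of them and the mean; inconclusive = half reach 75% but not the mean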;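 note: 0% = cytokine-treated negative control wells and 100% = positive control rescue; higher means more ATP so stronger rescue from cytokine killing; wells of about 40 µL received 100 nL stock; the first replicate is given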
AF4-AF9 inh: MLL-AF4/AF9 protein interaction inhibition. AID 651704. AlphaScreen, biotin-AF4 peptide binding to FLAG-AF9. P42568. inhibition, % at 10 µM. actives 0.47% (n = 350,000);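 active = every replicate reaching a set inhibition limit, whatever the replicate mean, cut at about 25% in these data; inconclusive = mean inhibition reaches that limit but some replicates miss it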;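 note: 0% = plate neutral control median and 100% = total signal loss; the record names both 10 and 1 µM as test concentration; the first replicate is given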
Target sequence (P42568 whole entry, looked up): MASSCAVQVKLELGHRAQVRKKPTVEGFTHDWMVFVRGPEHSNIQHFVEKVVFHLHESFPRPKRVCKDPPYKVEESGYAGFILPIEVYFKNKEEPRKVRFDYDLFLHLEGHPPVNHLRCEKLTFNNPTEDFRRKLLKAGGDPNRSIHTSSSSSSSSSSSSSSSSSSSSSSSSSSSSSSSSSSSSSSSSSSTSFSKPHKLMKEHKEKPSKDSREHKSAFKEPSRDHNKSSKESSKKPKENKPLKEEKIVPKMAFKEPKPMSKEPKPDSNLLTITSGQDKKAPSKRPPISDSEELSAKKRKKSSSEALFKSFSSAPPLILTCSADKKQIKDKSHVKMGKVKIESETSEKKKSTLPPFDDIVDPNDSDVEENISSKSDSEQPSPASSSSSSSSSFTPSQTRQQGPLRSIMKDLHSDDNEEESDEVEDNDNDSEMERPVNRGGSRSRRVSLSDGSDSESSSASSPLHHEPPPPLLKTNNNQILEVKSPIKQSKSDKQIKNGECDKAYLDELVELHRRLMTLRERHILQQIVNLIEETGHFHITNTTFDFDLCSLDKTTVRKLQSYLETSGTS
rRNA inh HTS: inhibits bacterial ribosomal RNA function over humanized ribosomes; E. coli WT GFP vs humanized-ribosome RFP mutants, fluorescence, 24 h; active compounds read low; DMSO median 0, no signal -100; GFP signal change (wild-type ribosome), % (test concentration not listed); actives 1.6% (n = 350,000);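 active = significant combined selectivity score with lowered wild-type GFP, culture density cut under 30%, mutant RFP and density less affected; inactive = any of these conditions unmet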; note: one replicate is shown; some compounds called inactive have numbers as strong as hits
UCH37 DUB inh: blocks the human deubiquitinase UCH37; inhibition, % (no concentration beside the values); actives 0.33% (n = 330,000); Q9Y5K5; purified proteasome/UCH37, Ub-AMC cleavage fluorescence;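 active = mean of two replicates above 20%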;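 note: 0% = compound-free wells with enzyme and 100% = wells lacking proteasome; stock transfer was 100 nL into about 20 µL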
Target sequence (Q9Y5K5 whole entry, looked up): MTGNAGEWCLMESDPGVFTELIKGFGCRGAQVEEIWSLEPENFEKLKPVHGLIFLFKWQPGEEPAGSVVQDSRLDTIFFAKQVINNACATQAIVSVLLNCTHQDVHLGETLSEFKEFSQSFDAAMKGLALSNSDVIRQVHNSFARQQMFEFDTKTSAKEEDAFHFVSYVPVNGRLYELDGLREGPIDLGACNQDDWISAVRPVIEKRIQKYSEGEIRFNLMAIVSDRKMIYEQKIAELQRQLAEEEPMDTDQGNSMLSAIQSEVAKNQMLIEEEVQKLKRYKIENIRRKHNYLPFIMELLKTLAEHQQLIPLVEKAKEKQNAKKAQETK
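assay system = human UCH37 enzyme supplied as purified proteasome complex | amount = proteasome at 0.15 nM in the dispensed enzyme solution | schedule = 30 min compound-proteasome preincubation then 25 min substrate reaction, room temperature | measured by = fluorescence, ex 355 nm, em 460 nm | benchmarks = no-proteasome wells (full inhibition) and compound-free wells (no inhibition)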
T cruzi inh: T. cruzi replication inhibition; T. cruzi beta-gal in NIH3T3, luminescence, 90 h; inhibition, % (no concentration beside the values); actives 1.4% (n = 300,000);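 active = mean inhibition across valid replicates above about 55%, limit read from the data; inconclusive = mean below that limit but half or more replicates reach it; inactive = mean below it, under half of replicates reach it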;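 note: signal also drops with host cell toxicity which is not excluded here; 0% = plate median of DMSO wells and 100% = zero luminescence signal; higher percent means less beta-gal luminescence so fewer parasites; stock transfer was 50 nL into about 50 µL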
rRNA inh HTS OD600: recorded beside rRNA inh HTS, whose call it bears; OD600 change, %; measured here: OD600 growth;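 optical density of the mix in the first replicate; 0 = DMSO median and -100 = no signal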
rRNA inh HTS RFP: second read-out of rRNA inh HTS, no call of its own (marks repeat the call); RFP signal change, %; measured here: RFP humanized mutant strains;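 first replicate; 0 = DMSO median and -100 = no signal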
* marks the source's active call; other numbers are inactive results; i = inactive; ? = inconclusive; / = no result given; & = joins results of further samples. An excerpt; rates above refer to the full screens.

Values in the order – E coli growth	Bfl-1 A1 inh	FGF22 binding	Beta cell apopt	AF4-AF9 inh	rRNA inh HTS	rRNA inh HTS OD600	rRNA inh HTS RFP	UCH37 DUB inh	T cruzi inh
> Cc1c(Br)cnn1C(C)C(=O)N1CCN(c2ccc(F)cc2)CC1 (stereo not given)
→ 0.66	0.3	i	-1	1.3	0	-1	-0.4	2.7	/
> O=C(O)C1CCC(CNS(=O)(=O)c2ccc(Cl)cc2)CC1 (stereo not given)
→ 0.66	0.8	i	-7	-6.7	0	-4	1.5	1.1	-10
> CN(CC(=O)Nc1cccc(F)c1)C(=O)c1ccc(COc2ccccc2)o1
→ /	0.2	/	2	-1.7	3	10	3.4	/	-1
> CCCC(C(=O)c1ccccc1)n1cncn1 (stereo not given)
→ 0.7	0.0	/	-1	/	/	/	/	3.2	-14
> Cc1ccc(-c2nnc(N3CCN(C(=O)COc4ccccc4)CC3)c3ccccc23)cc1
→ 0.7	-0.3	/	3	/	/	/	/	3.3	-25
> CCS(=O)(=O)N1CCN(C(=O)c2cccnc2)CC1
→ 0.66	0.1	/	1	/	/	/	/	0.7	-7
> CC(=O)Nc1ccc(S(=O)(=O)Nn2cnnc2)cc1
→ 0.68	-0.9	i	-8	-1.7	21	15	2.0	0.2	-1
> Cc1cccc(C(=O)NC(NC(=S)Nc2ccc(S(N)(=O)=O)cc2)C(Cl)(Cl)Cl)c1 (stereo not given)
→ 0.67	0.3	i	/	15	-10	4	-14	1.5	-4
> Fc1ccc(C2=NN(c3ccccc3)C(c3ccco3)C2)cc1 (stereo not given)
→ 0.64	1.8	i	0	-3.5	0	2	9.9	i	3
> CCn1c(NCc2cc(OC)c(OC)c(OC)c2)nc2ccccc21
→ 0.68	0.1	i	-3	-0.4	-19	-12	1.0	-1.8	-13
> COC(=O)C1=C(C(=O)OC)[C@@H]2N(C)c3ccc(OC)cc3[C@@]23C[C@@H](C(=O)OC)N(S(=O)(=O)c2ccc([N+](=O)[O-])cc2)C3=N1
→ /	0.5	i	-3	7.1	5	0	0.4	2.0	43
> CC1CCN(CCCCOc2ccc(Br)cc2)CC1
→ 0.64	0.3	/	-9	/	/	/	/	2.0	-7
> Nc1nc(COc2ccccc2C=O)nc(Nc2ccccc2)n1
→ 0.68	0.4	i	1	0.4	4	11	2.9	6.0	6
> O=C(Cn1c2c(c(-c3ccccc3Cl)cc1=O)CCC2)NCC1CCCO1 (stereo not given)
→ 0.68	1.5	i	5	-24	17	4	2.7	-19	0
> COc1cc(NC(=O)CSCC(=O)N(C)C2CCCCC2)cc(OC)c1
→ 0.7	-0.8	i	-6	-1.2	/	/	/	2.7	/
> CCn1c(=NC(=O)CSCC(=O)Nc2nccs2)sc2ccccc21
→ 0.76	-0.4	/	-5	/	/	/	/	1.2	-9
> CC(=O)Nc1ccc(NC(=O)COC(=O)c2ccc(S(=O)(=O)NCc3ccco3)cc2)cc1
→ 0.68	0.6	i	-2	-8.4	10	1	5.3	0.8	/
> Cc1occc1C(=O)NNC(=O)COc1ccc(Br)cc1Br
→ 0.69	0.4	i	0	2.8	2	4	-6.5	5.4	-3
> CNC(=S)Nc1ccc(Br)cc1
→ 0.68	0.3	/	0	/	/	/	/	2.5	-9
> O=C(COC(=O)c1cccc(Cl)c1)Nc1cc(S(=O)(=O)N2CCOCC2)ccc1N1CCOCC1
→ 0.69	/	i	/	-3.5	-8	-11	1.9	3.8	/
> C#C[C@]1(OC(C)=O)CCC2C3CCC4=CC(=O)CC[C@@H]4C3CC[C@@]21C (stereo not given in full)
→ /	0.2	i	7	0.4	/	/	/	-0.7	-8
> CCOc1cc2c(cc1OCC)C(c1ccc(OC)cc1)N(c1ccccc1)C(=O)C2 (stereo not given)
→ 0.69	-0.8	/	-2	/	/	/	/	1.5	24
> O=C(COc1ccc(/C=N/NC(=O)c2ccccc2O)cc1)Nc1ccccc1
→ /	0.8	i	-4	0.0	29	24	3.5	/	6
> Cn1c(N)c(C#N)c2c(c1=S)COC(C)(C)C2
→ 0.76	0.4	/	0	/	/	/	/	2.0	-1
> Cc1ccc(SC2=C(Sc3ccc(C)cc3)C(=O)c3ccccc3C2=O)cc1
→ 0.68	0.5	i	-23	-0.5	3	-4	3.6	52*	-29
> CCCN1C(=O)c2ccc(C(=O)Nc3ccc4c(c3)OCO4)cc2C1=O
→ 0.7	-9.0	i	/	0.9	-1	-1	0.1	1.3	-12
> Cn1c(SCc2ccc(C#N)cc2Cl)nc2ccccc21
→ 0.68	-4.5	/	-4	/	/	/	/	4.1	-3
> O=C(CN(c1ccccc1)S(=O)(=O)c1ccccc1[N+](=O)[O-])NN=C1CCCCCCC1
→ 0.72	0.5	/	-18	/	/	/	/	1.8	14
> O=c1c2cc(NC(=S)N3CCC(N4CCCCC4)CC3)ccc2nc2n1CCCCC2
→ 0.67	-1.1	i	-2	0.4	-9	7	-3.6	1.2	0
> Cc1cc(C)cc(-n2nnc(C(=O)NCc3ccccc3)c2N)c1
→ 0.64	0.4	/	-3	/	/	/	/	2.1	7
> O=C(Nc1ccc(-c2ccco2)cc1)C1CCCN(Cc2ccc(CO)o2)C1 (stereo not given)
→ 0.74	0.2	i	0	-8.1	-2	5	5.8	-0.2	-2
> c1ccc(-c2nccc(-c3ccc4c(c3)OCO4)n2)cc1
→ 0.66	1.2	i	2	-5.3	-2	11	-2.2	-6.6	-13
> CCn1nc2cc(C(=O)NCc3cc(C(F)(F)F)cc(C(F)(F)F)c3)ccc2c1OC
→ 0.7	-0.2	i	-4	0.5	5	5	0.0	-20	1
> CCC(=O)OCC(=O)N=c1sccn1Cc1ccc(C)cc1
→ 0.7	-0.1	i	-7	2.9	1	-2	-2.3	0.0	-18
> CC(=O)Nc1ccc(S(=O)(=O)Nc2cc(C)cn(Cc3ccc(C)cc3)c2=O)cc1
→ 0.66	-0.1	i	-1	7.9	-4	-4	2.0	5.8	6
> O=C(c1c(F)cccc1F)N1CCCC(c2nc(-c3ccc(Cl)cc3)no2)C1 (stereo not given)
→ 0.67	1.0	i	1	-6.8	-9	-18	-6.1	-2.7	0
> Cc1cc(-c2ccccc2C(=O)Nc2ccccc2O)on1
→ 0.72	1.0	i	-2	-1.0	4	6	2.9	5.8	-6
> Cc1ccc(NC(=O)C2CCN(C(=O)NC3CCCCC3)CC2)c(C)c1
→ 0.72	0.0	/	/	/	/	/	/	1.6	4
> CCn1c(CNc2ccc(F)cc2)nnc1SCC(=O)N1CCCc2ccccc21
→ 0.7	1.1	/	-1	/	/	/	/	5.3	-8
> CCOc1cc(N2CCOCC2)c(OCC)cc1NC(=O)c1cc(C)cc(C)c1
→ 0.71	-0.3	i	3	-0.7	4	10	-1.2	-3.9	16
> OC(CCN1CCCCC1)c1ccc(-c2ccccc2)cc1 (stereo not given)
→ 0.64	0.5	i	-4	-4.1	8	9	0.0	6.1	25
> C[C@H](CO)N1C[C@H](C)[C@@H](CN(C)C(=O)Nc2ccccc2)Oc2c(NC(=O)C3CCCCC3)cccc2C1=O
→ /	-0.1	i	-2	-1.4	1&0	-5&4	-4.8&-2.2	5.0	/
> Cn1c(=O)[nH]c(=O)c2c1nc(NC1CCCCC1)n2Cc1ccccc1
→ 0.81	-0.2	/	0	/	/	/	/	5.6	12
> O=C(CSCc1cnn(-c2ccccc2)c1-n1cccc1)NCc1cccnc1
→ 0.68	0.3	i	6	-0.3	-25*	-11*	1.0*	5.2	0
> COc1cccc(C(=O)NNC(=S)NC2CCCCC2)c1
→ 0.7	-0.9	/	0	/	/	/	/	1.5	-4
> COc1ccc(CCSc2nnc(C3CCCCC3)n2N)cc1
→ 0.74	0.4	/	-1	/	/	/	/	0.0	-3
> O=C(CCCn1ncn2c(cc3occc32)c1=O)NCc1ccccc1F
→ 0.67	?	i	2	-2.9	6	2	-1.7	-2.8	2
> COCc1ccc(CN2CCC(C(=O)Nc3cccc(-c4cccc(Cl)c4)c3)CC2)o1
→ 0.65	0.0	i	-1	6.5	-47	-72	8.4	2.6	17
> COc1ccc(CC(=O)NCc2ccc3c(c2)cc(C)n3C)cc1OC
→ 0.64	0.6	i	-4	-0.7	2	9	46	-1.8	3
> Cc1cccc(Nc2nnc(SCC(=O)NCC3CCCO3)s2)c1 (stereo not given)
→ 0.69	0.2	i	-10	1.8	/	/	/	5.6	/
> CCOCCn1c(CN2CCN(CCO)CC2)nc2c1c(=O)n(C)c(=O)n2C
→ 0.77	-0.2	i	-1	-3.5	4	2	-0.3	2.4	-2
> COc1cccc(CNC(=O)COc2cc(O)c3c(c2)OC(C)(C)CC3=O)c1
→ 0.73	0.1	i	1	2.4	/	/	/	5.9	4
> CCc1nnc(NC(=O)CSc2nnc(-c3cccnc3)n2CCc2ccccc2)s1
→ 0.65	0.3	/	-4	/	/	/	/	1.5	7
> C[N+]1(CN2C(=O)C3C4C=CC(C4)C3C2=O)CCCCC1 (stereo not given)
→ 0.64	0.2	/	-1	1.1	3	12	-1.1	3.4	-2
> O=C(Cc1cn(-c2ccccc2)nc1-c1ccccc1)N1CCCCC1
→ 0.71	-0.9	i	0	2.9	-4	-8	13	-0.5	13
> Cc1c(Br)c([N+](=O)[O-])nn1C(C)C(=O)NCc1cccs1 (stereo not given)
→ 0.71	0.1	/	-8	/	/	/	/	4.1	18
> COc1cc(C)c(S(=O)(=O)n2c([N+](=O)[O-])cnc2C)cc1C
→ 0.68	1.4	i	/	-1.4	10	1	-0.1	7.1	-5
> O=C(O)c1cccc(-c2nnn(Cc3ccccc3)n2)c1
→ 0.67	-3.8	/	4	/	/	/	/	3.1	-2
> O=C1C(=O)N(c2ccccn2)C(c2ccc(Br)cc2)/C1=C(/O)c1ccc(Br)cc1 (stereo not given)
→ 0.67	0.0	i	3	0.9	-15	-6	-3.9	8.3	6
> COc1ccc(CNC(=S)Nc2cccc(OC)c2)cc1
→ 0.61	-1.1	i	/	-3.0	2	1	-2.0	0.7	0

Following part
Values in the order – E coli growth	Bfl-1 A1 inh	FGF22 binding	Beta cell apopt	AF4-AF9 inh	rRNA inh HTS	rRNA inh HTS OD600	rRNA inh HTS RFP	UCH37 DUB inh	T cruzi inh
> CCOC12CC(C)(C)CC(C)(CC3=C1C(=O)CC(C)(C)C3)C2 (stereo not given)
→ 0.69	0.1	i	1	3.3	/	/	/	5.3	-15
> COc1ccc(NC(=S)N(CCc2c(C)[nH]c3ccc(C)cc23)Cc2ccco2)cc1
→ /	0.1	i	-2	4.8	-1	9	2.1	/	26
> Cc1ccc(S(=O)(=O)N2CCCCC2C(=O)N2CCN(Cc3ccccc3)CC2)cc1 (stereo not given)
→ 0.73	0.8	/	5	/	/	/	/	7.3	14
> O=C(CN(c1ccc(Cl)c(C(F)(F)F)c1)S(=O)(=O)c1ccccc1)N1CCOCC1
→ 0.7	-0.6	/	2	/	/	/	/	4.0	13

Screening results deposited in PubChem by several laboratories.
